Tau filament bind = tau filament binding; P10636; recombinant tau filaments, thioflavin S fluorescence, 15 h; filaments grown with octadecylsulfate alongside compound; Potency, µM (series often up to 57.1 µM), inactives show top-dose activity change, negative = inhibition; hit rate 2% among 71,000; AID 596;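 note: potency is the fitted concentration of half-maximal effect; % is set by controls: 0 for no effect and ±100 for the full control effect; actives lower thioflavin S fluorescence by blocking filaments or displacing dye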
Target sequence (P10636 whole entry, looked up): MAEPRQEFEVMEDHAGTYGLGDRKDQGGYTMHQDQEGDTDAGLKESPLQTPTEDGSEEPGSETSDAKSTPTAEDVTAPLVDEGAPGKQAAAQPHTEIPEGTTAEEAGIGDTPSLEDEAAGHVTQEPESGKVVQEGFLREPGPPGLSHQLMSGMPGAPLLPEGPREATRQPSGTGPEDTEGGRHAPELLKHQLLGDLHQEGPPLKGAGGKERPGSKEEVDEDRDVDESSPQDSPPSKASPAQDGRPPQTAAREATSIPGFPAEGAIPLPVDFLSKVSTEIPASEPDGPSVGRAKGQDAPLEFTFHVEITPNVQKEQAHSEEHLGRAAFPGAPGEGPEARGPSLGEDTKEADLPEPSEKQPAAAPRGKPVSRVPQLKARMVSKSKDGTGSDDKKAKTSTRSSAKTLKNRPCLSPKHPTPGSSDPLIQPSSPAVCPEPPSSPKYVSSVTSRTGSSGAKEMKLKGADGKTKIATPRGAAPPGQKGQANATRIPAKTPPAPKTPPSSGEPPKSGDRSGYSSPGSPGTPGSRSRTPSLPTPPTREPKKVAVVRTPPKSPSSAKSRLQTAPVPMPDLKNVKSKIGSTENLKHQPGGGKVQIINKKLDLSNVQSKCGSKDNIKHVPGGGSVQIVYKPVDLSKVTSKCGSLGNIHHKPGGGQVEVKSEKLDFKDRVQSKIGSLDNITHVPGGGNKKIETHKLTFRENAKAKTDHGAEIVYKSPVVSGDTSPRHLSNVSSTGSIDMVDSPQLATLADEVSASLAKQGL
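Quantitative HTS: thioflavine S signal from ODS-induced tau filaments, excited at 450 nm, emission 510 nm. Conditions: 1 uM tau, 30 uM ODS, 15 h at 37 C, pH 7.4.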
BRCT PPI green = blocks human BRCA1 BRCT binding to phosphopeptide, green readout | Potency, µM (doses to about 76.9 µM), inactives show at the highest dose activity change, negative = inhibition, hits mostly inhibitors | BRCA1 BRCT-phosphopeptide binding, green fluorescence polarization | hit rate 0.05% among 75,000 | AID 875 | P38398;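 note: potency is the fitted concentration of half-maximal effect; plate controls were peptide without protein for full effect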
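Fluorescence polarization: His-tagged BRCT (~35 kDa BRCA1 C-terminus, 250 nM) bound to 100 nM fluorescein-labeled phosphorylated 10-aa BACH1 peptide, pH 7.3 phosphate buffer with DTT and Tween 20. Compounds incubated 12 min at room temperature; inhibition read as lowered polarization.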
HEK293 cAMP ctrl = parental HEK293 cAMP activation (counter-screen) | parental HEK293 CNG cAMP sensor, membrane potential fluorescence | Potency, µM (doses to about 57.1 µM), without a hit: at the top dose activation, usual class: activators | hit rate 2.5% among 73,000; note: potency is the fitted concentration of half-maximal effect; % of control where 0% means no effect; nearly all actives have a fitted effect of over 55% in size
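Parental HEK 293 cells stably expressing a cAMP-gated CNG channel were loaded with membrane potential dye containing 100 uM RO 20-1724 for 60 min. Compound added for 30 min; depolarization read as fluorescence intensity at 590 nm.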
USP2a inh = inhibitors of human ubiquitin-specific protease USP2a; O75604; USP2a enzymatic assay, qHTS inhibition; Potency, µM (top dose mostly 38.3 µM), without a hit: at the top dose activity change, negative = inhibition, actives largely listed as inhibitors; hit rate 0.1% among 60,000;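 note: potency is the fitted concentration of half-maximal effect; nearly all actives have a fitted effect of over 60% in size; plate controls were DMSO for no effect and NEM full inhibition control for full effect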
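USP2 core (20nM final) preincubated 30 min RT with compound, then Ub-PLA2 20nM and NBD C6-HPC 20uM final added; buffer 20mM Tris-HCl pH 8.0, 2mM CaCl2. Fluorescence Ex 460/Em 535 read at 0 and 2.5 h; normalized to NEM.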
FLuc inh = blocks Photinus pyralis firefly luciferase activity; P08659; purified firefly luciferase, luminescence, 8 min; Potency, µM (series often up to 57.1 µM), for inactives: top-dose activity change, negative = inhibition, actives largely listed as inhibitors; hit rate 2.2% among 72,000; AID 411; note: potency is the fitted concentration of half-maximal effect; % is set by controls: 0 for no effect and ±100 for the full control effect; nearly all actives have a fitted effect of over 40% in size
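Titration-based qHTS; buffer 50 mM imidazole pH 7.2, 50 mM KCl, 7 mM MgCl2, 10 uM ATP, 0.01% Tween 20, 0.05% BSA; luciferase/luciferin detector mix added after compound; 8 min, ambient; luminescence.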
BRCT inh red = BRCT-phosphoprotein interaction inhibition (red fluorophore). BRCT-phosphopeptide binding, red fluorescence polarization. P38398. AID 892. Potency, µM (highest dose often 76.9 µM), without a hit: at the highest dose activity change, negative = inhibition, usual class: inhibitors. hit rate 0.03% among 75,000; note: % is set by controls: 0 for no effect and ±100 for the full control effect
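Rhodamine-labelled pBACH1 10-mer (100 nM) bound to BRCT domain (100 nM) at pH 7.3; compounds incubated 12 min room temperature, polarization read. Free peptide defines full inhibition; unlabelled decapeptide titrated as control.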
CRE-bla Fsk = CRE-bla signaling modulation under forskolin stimulation; CHO CRE-bla reporter (cAMP response element driving beta-lactamase), forskolin EC10, beta-lactamase ratio; Potency, µM (highest dose often 38.2 µM), without a hit: at the highest dose activity change, negative = inhibition, most hits filed as activators; hit rate 2.5% among 71,000; AID 662; active = well fitted activation curve with a large enough effect in the signal ratio, with a control signal flat, not every such curve was filed as active; inconclusive = small, poorly fitted or top-dose-only effect, or effect the other way, or a change in a side signal; the % refers to the signal ratio; note: potency is the fitted concentration of half-maximal effect; % of control where 0% means no effect
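The 460nm/530nm emission ratio after CCF4 loading defined %Activity, from which AC50 values were obtained. CRE-bla CHO cells received compound dilution series together with an EC10 level of NKH 477 for 3 hours at 37 degrees Celsius.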
ERK AVP block = inhibitors of vasopressin-stimulated ERK signaling pathway | HEK293-V1b, vasopressin-stimulated pERK AlphaScreen | Potency, µM (highest dose often 57.5 µM), without a hit: at the top dose activity, negative = inhibition, usual class: inhibitors | hit rate 0.99% among 72,000 | AID 995; note: potency is the fitted concentration of half-maximal effect; % is set by controls: 0 for no effect and ±100 for the full control effect; nearly all actives have a fitted effect of over 55% in size
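qHTS, compounds titrated on V1b-expressing HEK293 cells. Preincubation 30 min at 37C, vasopressin 25 nM for 5 min, lysis 10 min, bead incubation 5 hr at room temperature.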
Starred values were filed as active, the others as inactive; i = inactive; u = inconclusive; [ ] = remark or other dose. Unless noted, calls come from the whole dose curve; as a rule, active = well fitted curve in the direction sought with a large enough effect; inconclusive = small, poorly fitted or top-dose-only effect, or another doubt; inactive = no such curve, though single readings can be large; an effect the other way counts as inactive or inconclusive.

Assay codes: A = Tau filament bind; B = BRCT PPI green; C = HEK293 cAMP ctrl; D = USP2a inh; E = FLuc inh; F = BRCT inh red; G = CRE-bla Fsk; H = ERK AVP block
1. CN1/C(=N\O)c2cccc3cccc1c23
  A = 332.7%; B = -2.5%; C = -17.1%; D = -3.4%; E = 1.3%; F = -3.2%; G = u; H = 5.5%
2. CN(C)c1ncc2nc(-c3ccc(Cl)cc3)c(=O)n(CCC#N)c2n1
  A = 156.0%; B = -1.5%; C = -26.7%; D = 123.2%[activator]; E = -0.5%[11.4 µM]; F = 0.2%; G = u; H = 11.1%
3. COCCn1c(=O)c(-c2cccs2)nc2cnc(N3CCN(C)CC3)nc21
  A = i; B = -2.9%; C = -17.6%; D = 33.9%[activator]; E = 1.4%[11.4 µM]; F = -0.8%; G = u; H = 6.8%
4. CCn1nc(-c2ccccc2)c2nc3ccccc3nc21
  A = i; B = -1.6%; C = 10.1%; D = 7.2%; E = 2.9%; F = -0.2%; G = u; H = 79.8%[activator]
5. CCC(c1nnnn1Cc1ccco1)N(CCc1ccccc1)Cc1cc2cccc(C)c2[nH]c1=O (configuration not stated)
  A = 32.8%; B = 2.5%; C = 12.6µM*; D = 266.8%[activator]; E = -3.5%; F = -0.5%; G = -18.7%; H = -3.8%
6. Cc1onc(-c2ccccc2Cl)c1C(=O)Nc1cccc2nsnc12
  A = 18.3%; B = -1.1%; C = 31.6µM*; D = -10.8%; E = -0.6%; F = 0.7%; G = u; H = 7.8%
7. O=c1c(-c2cc(F)cc(F)c2)nc2cnc(N3CCOCC3)nc2n1Cc1cccs1
  A = -3.2%; B = -1.5%; C = 1.3%[0.457 µM]; D = 82.3%[activator]; E = 0.7%[11.4 µM]; F = 0.0%; G = 0.631µM*; H = -9.8%
8. CCCC(=O)Nc1nn(C)c2nc3c(C)cccc3cc12
  A = 0.5%; B = -4.7%; C = 3.6%; D = 4.3%; E = 0.3%; F = 1.3%; G = u; H = 16.3%
9. O=C(Cc1cn2ccsc2n1)Nc1nc2c(s1)CN(Cc1ccccc1)CC2
  A = 56.9%; B = 16.7%; C = 19.1%; D = 6.2%; E = -4.1%; F = -0.1%; G = 10.0%; H = 2.4%
10. CCOC(=O)CNC(=O)c1sc2nc(C)cc(C)c2c1N
  A = 2.5%; B = -2.7%; C = 1.1%; D = 3.1%; E = -3.0%; F = -1.3%; G = 29.1%; H = -14.6%
11. C=CCNC(=O)c1c(N)n(-c2cccc(S(N)(=O)=O)c2)c2nc3ccccc3nc12
  A = 21.1%; B = -1.3%; C = -4.9%; D = 34.9%[activator]; E = 1.0%; F = -1.5%; G = 10µM*; H = 2.7%
12. CC(C)n1c(=NC(=O)c2ccco2)c(C#N)cc2c(=O)n3ccccc3cc21
  A = i; B = -2.3%; C = -8.7%; D = 4.2%; E = -1.7%; F = -1.3%; G = u; H = -7.7%
13. COC(=O)c1cc2c(=O)n3ccccc3nc2n(Cc2cccnc2)c1=N
  A = 11.9%; B = -2.6%; C = -0.8%; D = -10.3%; E = -1.8%; F = 0.2%; G = 14.7%; H = 0.3%
14. Cc1cc(C)c2c(n1)nn1c(NCCOCCO)cc(C)nc21
  A = 112.0%; B = -3.5%; C = -0.4%; D = 8.0%; E = 0.0%; F = 1.0%; G = u; H = -6.9%
15. CC(=O)Nc1c2c3c(cccc3n(C)c1=O)C(=O)c1ccccc1-2
  A = 185.6%; B = -4.8%; C = -4.1%; D = 11.4%; E = 1.4%; F = -0.1%; G = -1.3%; H = 35.2%[activator]

Ordered by the number under BRCT PPI green (largest number first): 3 of the compounds above
No.	mol	BRCT PPI green
1	CN1/C(=N\O)c2cccc3cccc1c23	-2.5%
10	CCOC(=O)CNC(=O)c1sc2nc(C)cc(C)c2c1N	-2.7%
3	COCCn1c(=O)c(-c2cccs2)nc2cnc(N3CCN(C)CC3)nc21	-2.9%

Other results
Assay codes: A = Tau filament bind; B = BRCT PPI green; C = HEK293 cAMP ctrl; D = USP2a inh; E = FLuc inh; F = BRCT inh red; G = CRE-bla Fsk; H = ERK AVP block
16. Cn1c(=O)c(-c2cccs2)nc2cnc(N3CCNCC3)nc21
  A = i; B = -1.7%; C = 16.1%; D = 200.1%[activator]; E = -2.8%[11.4 µM]; F = 0.3%; G = u; H = 6.0%
17. COc1ccc(OC)c(C2C3CN(C(C)C)CC=C3C(C#N)=C(N)C2(C#N)C#N)c1 (configuration not stated)
  A = 311.4%; B = 1.1%; C = 7.5%; D = 14.1%; E = -0.9%; F = 1.3%; G = u; H = -26.6%
18. Cc1cccn2c(=O)c3cc(C(=O)NCCCN4CCCC4=O)n(C)c3nc12
  A = 10.5%; B = -1.9%; C = 1.0%; D = 8.8%; E = -1.9%; F = -1.1%; G = u; H = 15.6%
19. CN(C)c1ncc2nc(-c3ccccc3)c(=O)n(CCc3ccccc3)c2n1
  A = -3.8%; B = -2.5%; C = 15.3%[2.29 µM]; D = 8.1%; E = 0.0%[11.4 µM]; F = -0.7%; G = u; H = 26.6%
20. O=c1oc2c(CN3CCOCC3)c(O)c(Cl)cc2c2c1CCCC2
  A = 19.2%; B = -3.1%; C = 7.4%; D = -1.7%; E = 3.9%; F = -0.7%; G = 15.1%; H = -11.1%
21. O=c1c2cc(N3CCOCC3)ccc2[nH]c(=S)n1CCCN1CCCCCC1
  A = 7.5%; B = 0.9%; C = 2.0%; D = 16.3%; E = 0.7%; F = 0.2%; G = -11.1%; H = -11.2%
22. O=c1c(-c2cccs2)nc2cnc(Oc3cccc(Cl)c3)nc2n1C1CC1
  A = 168.4%; B = 12.4%; C = 0.2%; D = 133.5%[activator]; E = 0.1%[11.4 µM]; F = -2.6%; G = u; H = 6.1%
23. COCCn1c(=O)c(-c2ccc(Cl)cc2)nc2cnc(N3CCOCC3)nc21
  A = 8.9%; B = -0.6%; C = 13.8%; D = 34.8%[activator]; E = 0.2%[11.4 µM]; F = -0.5%; G = 1µM*; H = 12.5%
24. Cc1ccc2nc3c(cc(C(=O)NCc4cccnc4)c(=N)n3C(C)C)c(=O)n2c1
  A = 151.2%; B = 5.7%; C = -1.4%; D = 1.5%; E = 1.7%; F = 1.3%; G = u; H = 1.9%
25. COCCCNC(=O)c1cc2c(=O)n3cccc(C)c3nc2n(C(C)C)c1=N
  A = 28.1%; B = -1.0%; C = -1.0%; D = 3.9%; E = -5.1%; F = 0.2%; G = u; H = -5.6%
26. Cc1sc2nc3ccc(N4CCCCC4)nn3c(=O)c2c1C
  A = 25.5%; B = -0.4%; C = u; D = 6.7%; E = -18.1%; F = -0.9%; G = u; H = 3.9%
27. COC(=O)c1ccccc1NC(=O)C1CC(c2ccccc2O)=NO1 (configuration not stated)
  A = 1.1%; B = -1.8%; C = u; D = 2.6%; E = 3.2%; F = 1.0%; G = u; H = u
28. COCCn1c(=O)c(-c2cn(C)c3ccccc23)nc2cnc(Oc3cccc(Cl)c3)nc21
  A = 27.1%; B = -1.2%; C = u; D = 185.9%[activator]; E = 0.3%[11.4 µM]; F = -0.5%; G = 1.26µM*; H = 23.2%
29. N#CCCn1c(=O)c(-c2ccccc2)nc2cnc(Oc3ccccc3)nc21
  A = -28.5%; B = -1.5%; C = 11.5%[2.29 µM]; D = 103.2%[activator]; E = 1.7%[11.4 µM]; F = -0.2%; G = u; H = -21.6%
30. CN(C)c1ncc2nc(-c3cc(F)cc(F)c3)c(=O)n(Cc3ccc(F)cc3)c2n1
  A = 212.2%; B = -2.7%; C = -9.7%; D = 64.0%[activator]; E = 0.0%[11.4 µM]; F = -2.1%; G = u; H = 9.8%
31. COc1ccc(-c2nc3cnc(OC)nc3n(CCc3ccccc3)c2=O)cc1
  A = 1.2%; B = -0.9%; C = u; D = 85.4%[activator]; E = -1.2%[11.4 µM]; F = -0.1%; G = u; H = -0.9%
32. O=C(c1nc2n(n1)C(c1ccc(Cl)cc1)C=C(c1ccccc1)N2)N1CCOCC1 (configuration not stated)
  A = i; B = -14.1%; C = -3.0%; D = 59.8%[activator]; E = -0.6%; F = -0.1%; G = u; H = -2.7%
33. CCN1C2=C(C(=O)CCC2)C(c2ccc(O)cc2)C2=C1CCCC2=O
  A = 5.8%; B = -0.4%; C = 1.7%; D = 1.6%; E = -0.6%; F = -1.4%; G = 13.2%; H = -15.9%
34. C=CCn1c(NC(=O)c2ccccc2Cl)c(C#N)c2nc3ccccc3nc21
  A = 177.2%; B = 5.6%; C = 17.4%; D = 15.3%; E = 1.5%; F = -0.9%; G = u; H = -16.1%
35. COc1ccc(-c2nc3cnc(N4CCNCC4)nc3n(Cc3ccc(F)cc3)c2=O)cc1
  A = 1.2%; B = -4.9%; C = 6.5%; D = 6.5%; E = 0.1%[11.4 µM]; F = 0.9%; G = u; H = -8.6%
36. CCCn1c(=NC(=O)c2ccc3c(c2)OCO3)c(C#N)cc2c(=O)n3cccc(C)c3nc21
  A = 292.3%; B = -2.4%; C = u; D = 14.2%; E = 1.5%; F = 0.3%; G = -1.9%; H = 10.0%
37. O=c1[nH]c2cc3c(cc2cc1C(c1nnnn1CC1CCCO1)N1CCCCCC1)OCO3 (configuration not stated)
  A = 36.9%; B = -2.0%; C = -1.7%; D = 2.7%; E = 1.3%; F = -0.3%; G = 2.1%; H = -1.4%
38. CN(C)c1ncc2nc(-c3cc(F)cc(F)c3)c(=O)n(-c3ccccc3)c2n1
  A = 35.4%; B = 7.3%; C = 6.2%; D = 111.5%[activator]; E = 1.5%[11.4 µM]; F = -0.1%; G = u; H = 12.4%
39. O=C(Nc1cccc2c1C(=O)NC2=O)c1ccc(S(=O)(=O)N2CCCC2)cc1
  A = i; B = -6.5%; C = -3.7%; D = 12.6%; E = 1.8%; F = 2.0%; G = u; H = -8.8%

Screening data from PubChem BioAssay.

Not all compounds are listed; count on the stated rates, not on these rows.
